Source: PubChem BioAssay (National Center for Advancing Translational Sciences (NCATS))
GLA inh pH 4.5 – inhibitors of human alpha-galactosidase A at pH 4.5; AID 1467; P06280; activity change, negative = inhibition, % at 105 µM; purified enzyme, 4-MU-alpha-Gal fluorescence, pH 4.5; 230,000 tested, under 10 active; inconclusive = small, poorly fitted or top-dose-only inhibition, or a rising curve; inactive = flat fitted curve, though single readings scatter; no compound was filed as active;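 also: 0% = full activity with enzyme and -100% = basal without enzyme; dose as in the result columns while the protocol names 77 µM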
Target sequence (P06280 whole entry, looked up): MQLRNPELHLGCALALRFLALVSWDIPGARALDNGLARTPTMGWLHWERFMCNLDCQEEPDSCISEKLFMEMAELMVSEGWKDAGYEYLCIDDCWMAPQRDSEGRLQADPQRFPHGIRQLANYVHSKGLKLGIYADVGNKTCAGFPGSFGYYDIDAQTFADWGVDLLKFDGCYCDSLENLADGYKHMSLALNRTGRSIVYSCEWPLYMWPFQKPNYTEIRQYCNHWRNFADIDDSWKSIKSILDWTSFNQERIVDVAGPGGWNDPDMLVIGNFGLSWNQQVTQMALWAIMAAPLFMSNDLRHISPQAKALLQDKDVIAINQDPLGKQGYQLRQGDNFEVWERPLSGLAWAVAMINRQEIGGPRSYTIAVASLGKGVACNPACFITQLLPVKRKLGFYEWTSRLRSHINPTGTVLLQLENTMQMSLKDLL
Rango complex inh – Rango-importin beta binding inhibition; Q14974; Rango CFP/YFP FRET sensor + importin beta, 45 min; Potency, µM (doses to about 92.2 µM), inactives show at the highest dose inhibition of complex formation; actives 0.031% (n = 340,000); AID 540263; active = rising FRET ratio curve, often small or poorly fitted; inconclusive = mostly compound fluorescence or quenching in the first reads; inactive = flat curves in all reads;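 also: potency is read from the fitted curve at half-maximal effect; 0% = DMSO wells and 100% = buffer wells lacking importin beta; nearly all actives have a fitted effect of over 15% in size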
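FRET biosensor Rango (snurportin 1 IBB between N-terminal EYFP and C-terminal Cerulean), 50 nM in PBS/1 mM DTT/0.02% Tween-20/0.1% BSA, preincubated 5 min RT with compound; 0.125 microM importin beta added, 45 min RT, CFP/YFP FRET ratio read.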
Rango dissoc inh – inhibitors of RanGTP-induced Rango-importin beta complex dissociation; O95149+P62826; Biochemical FRET Rango-importin beta, RanGTP-induced dissociation; Potency, µM (series often up to 46.1 µM), inactives show top-dose activity change, negative = inhibition; actives 0.071% (n = 340,000); AID 540253; active means falling FRET ratio curve, often poorly fitted, with flat reads before Ran was added; inconclusive means other falling curves, or compound fluorescence or quenching; inactive means flat or rising ratio curve;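 also: potency is read from the fitted curve at half-maximal effect; % of control where 0% means no effect; nearly all actives have a fitted effect of over 45% in size; -100% = wells without RanGTP and RCC1; the record marks most hits as doubtful in a second field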
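Compounds sat 5 min at room temperature with 0.1 uM Rango biosensor plus 0.25 uM importin beta, then FRET pre-read. RanGTP-RCC1 (0.6 uM Ran, 2mM GTP, 0.2 uM RCC1) added for 45 min, and the CFP/YFP post-read measured blocked complex dissociation.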
miR-21 reporter – raises the signal of a miR-21 reporter. HeLa miR-21 FLuc reporter, luciferase, 48 h. Potency, µM (series often up to 38.3 µM), inactives show at the highest dose reporter change, positive = more light. 340,000 tested, under 10 active. AID 2288; active = well fitted rising curve with a large enough effect; inconclusive = small, poorly fitted or top-dose-only effect; inactive = no such curve, though single readings can be large or run the other way;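 also: % of control where 0% means no effect; miR-21 action dims this reporter so a rising signal means less miR-21 action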
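Compounds were titrated across several concentrations (up to approximately 40 uM) and incubated 48 hours with HeLa miR-21-FLuc reporter cells (miR-21 target sequence downstream of FLuc, endogenous miR-21). Readout was firefly luciferase luminescence after lytic detection reagent.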
* hit, by the source's call; u = inconclusive; x = not tested or not shown; & = joins results of further samples; [ ] = remark or other dose.

GLA inh pH 4.5 | Rango complex inh | Rango dissoc inh | miR-21 reporter | Molecule
x | -2.3% | -3% | 17% | CCCNC(=O)c1cc(S(=O)(=O)N2CCc3ccccc32)cn1C
-7 | -1.7% | 18% | -6% | O=C1CC(C(F)(F)C(F)(F)C(F)(F)F)=Nc2ccccc2N1
2 | -5.9% | 0% | -37% | COc1ccccc1NC(=O)Nc1ccc(C(N)=O)cc1
0 | -0.3% | -2% | -1% | Cc1ccc(-n2nc(C)c3c(C)c(CCC(=O)NCc4ccco4)c(C)nc32)cc1
-10 | 2.8% | -12% | 0% | Cc1csc(NC(=O)CSc2nnc(CCNC(=O)c3ccc(Cl)c(Cl)c3)n2C)n1
x | u | 21% | 1% | O=C(CCNC(=O)N1CC(=O)Nc2ccccc21)NCc1cccc(Cl)c1
x | -4.5% | 0% | 2% | CC(C)c1ccc(/C=C/c2[nH]c(=O)[nH]c(=O)c2[N+](=O)[O-])cc1
x | 1.0% | -1% | x | COC(=O)c1ccc(CNC(=O)CCC(=O)N2CCOCC2)cc1
4 | -4.6% | 0% | -3% | O=C(Cc1ccccc1)Nc1nnc(-c2ccco2)o1
x | u | -8% | x | Cn1ccnc1SCC(=O)c1c(N)n(C)c(=O)n(C)c1=O
4 | -3.8% | -6% | 8% | Cn1cnnc1SCC(=O)Nc1ccc(Br)cc1F
4 | -0.7% | 1% | -4% | CCc1nnc(NC(=O)c2ccc(-c3cccc(C(F)(F)F)c3)o2)s1
0 | -3.1% | -19% | -11% | N/C(=N\NS(=O)(=O)c1ccccc1C(F)(F)F)c1ccccn1
6 | 2.0% | 4% | -32% | CSCc1ccc(C(=O)NCc2ccc(C)cc2)cc1
x | -2.4% | 1% | -10% | C=CCSc1ncccc1C(=O)NCCc1ccc(Cl)cc1
x | -0.8% | 0% | -14% | Clc1ccc(OCCN2CCOCC2)cc1
-2 | -1.9% | -8% | -6% | O=c1[nH]c2ccccc2cc1-c1noc(-c2cccnc2)n1
1 | x | x | 0% | Cc1nc(C)c(C(=O)C2=C(O)C(=O)N(CCCN(C)C)C2c2ccco2)s1 (stereo not drawn)
2 | 2.2% | -5% | -2% | CCN1C(=O)C(C)S/C1=N\S(=O)(=O)c1ccc(F)cc1 (stereo not drawn)
5 | -2.7% | -27% | -10% | O=C(CCc1nc2ccccc2c(=O)[nH]1)OCc1nnc(-c2ccccc2)o1
-5 | -3.5% | 3% | 2% | CC1(C)N([O-])C(c2ccccc2)=C[N+](=O)C1(C)C
-12 | 0.6% | 3% | 3% | CCN1CCN(c2nc(Nc3ccc(C)c(C)c3)nc(N)c2[N+](=O)[O-])CC1
x | -0.3% | -9% | 0% | CN1CCN(C(=O)C2CCC(=O)N(Cc3cccc(C(F)(F)F)c3)C2)CC1 (stereo not drawn)
3 | -0.2% | -19% | -12% | CCc1cc2c(=O)[nH]c(-c3ccncc3)nc2s1
-2 | 0.8% | -9% | -3% | COc1cc(OC)c(NC(=O)Cn2cccc2)cc1Cl

GLA inh pH 4.5 | Rango complex inh | Rango dissoc inh | miR-21 reporter | Molecule
-2 | -4.8% | 11% | -6% | O=C(Nc1cccc(C(F)(F)F)c1)C1(c2ccccc2)CC1
x | -2.8% | -6% | x | CNC(=O)c1c(NC(=O)CCS(=O)(=O)c2ccc(F)cc2)sc(C)c1C
x | 2.6% | 17% | -6% | Cc1cccc(C)c1OCC1CNC(=O)O1 (stereo not drawn)
-8 | 4.0% | 1% | -5% | Nn1c(SCC(=O)Nc2ccc(F)c(F)c2)nnc1C1CCCCC1
x | 2.4% | -8% | -4% | CC(=O)Cn1cnc2scc(-c3ccc(C)c(C)c3)c2c1=O
5 | u | -12% | -2% | COc1cc2c(cc1OC)C1(NCC2)C(=O)Nc2ccccc21 (stereo not drawn)
6 | -0.8% | 15% | -13% | Cc1ccc(S(=O)(=O)NCc2nc3ccccc3[nH]2)cc1
-2 | u | -17% | -10% | COCCOC(=O)C1=C(C)NC2=C(C(=O)CC(C)(C)C2)C1c1cc2c(cc1Br)OCO2 (stereo not drawn)
x | 3.0% | -20% | x | CCOC(=O)/C(C#N)=C\c1ccc2c(c1)OCO2
x | 0.0% | 6% | x | Cc1ccc(C2(C)NC(=O)N(CC(=O)N3CCN(S(=O)(=O)c4cccs4)CC3)C2=O)cc1 (stereo not drawn)
-3 | 0.4% | 11% | 9% | O=[N+]([O-])c1ccc(C[n+]2cc(-c3ccc(Cl)c(Cl)c3)n3c2CCCCC3)cc1
5 | -4.2% | 1% | -4% | CCN1CCN(C(=O)c2ccccc2NS(=O)(=O)c2ccc(Cl)cc2)CC1
x | -1.7% | 5% | -32% | CCN(CC)c1ccc(C(=O)Nn2cnc3ccccc3c2=O)cc1
-2 | 1.3% | 1% | -12% | Cc1ccccc1N1CCN(C2=NC(=O)/C(=C/c3cn[nH]c3-c3ccccc3)S2)CC1
3 | 8.6% | 15% | 6% | O=C(CSc1ccc2nnc(CCNS(=O)(=O)c3ccccc3)n2n1)Nc1nc2ccccc2s1
x | -0.5% | 0% | -7% | COc1ccc(OCC(=O)Nc2ccc(N3CCN(Cc4ccccc4F)CC3)cc2)cc1
x | 0.5% | 6% | x | CC1Cc2ccccc2N1C(=O)CN1CCN(S(=O)(=O)c2cccs2)CC1 (stereo not drawn)
-12[21.1 µM] | 3.0% | -6% | -1% | Cc1nn(C)cc1S(=O)(=O)N1CCCC(C(=O)O)C1 (stereo not drawn)
x | 0.3% | -9% | 0% | Cc1noc(C(=O)N(C)c2ccccc2)c1Cl
-4 | 0.2% | 3% | -46% | O=S(=O)(Nc1ccc2ccccc2c1)c1ccccc1
x | u | 6% | x | Cc1cc(=O)c2c(o1)C(=O)c1occc1C2=O
x | -0.4% | 1% | -9% | CCCCOc1cccc(C(=O)Nc2ccccc2N2CCCC2)c1
-11 | -4.5% | -8% | -3% | CN(C)S(=O)(=O)c1ccc(C(=O)Nc2cc(S(=O)(=O)Nc3ccccc3Cl)ccc2N2CCCCC2)cc1
9 | u | -17% | 3% | COc1ccc(N=C2S/C(=C\c3ccc(OCC(=O)O)cc3)C(=O)N2CCc2c[nH]c3ccccc23)cc1
x | -1.2% | -1% | x | CCOC(=O)CCCCC1C(CCCC(=O)OCC)C=NN1C (stereo not drawn)

GLA inh pH 4.5 | Rango complex inh | Rango dissoc inh | miR-21 reporter | Molecule
-9 | -1.7% | -8% | -1% | Cc1ccc([N+](=O)[O-])cc1NC(=O)C(Sc1ccccc1)c1ccccc1 (stereo not drawn)
x | -1.8% | 1% | -3% | CCN1CCN(c2cc(C)c3cc(NC(=O)CCC(=O)N4CCN(c5ccccc5)CC4)ccc3n2)CC1
x | 3.0% | -2% | x | CCN(CC(=O)NCc1cccs1)S(=O)(=O)c1ccccc1Cl
x | 1.9% | 15% | x | O=C(/C=C/c1ccc(Cl)cc1)OCC(=O)c1ccc[nH]1
-9 | u | 18% | -52% | O=C(N/N=C/c1ccc[nH]1)c1ccc(Cl)cc1
x | -0.4% | -8% | 0% | COc1ccc(N2C(=O)N[C@@H](Cc3ccccc3)C2=O)cc1OC
x | 6.1% | 3% | x | CCC(C)n1c(SCC(=O)NC2CCS(=O)(=O)C2)nc2ccccc2c1=O (stereo not drawn)
x | 1.5% | -6% | -4% | CC1(C)CC(NS(=O)(=O)c2ccc3ccccc3c2)CC(C)(C)N1
x | 2.7% | 0% | x | CC(=O)NC(CC(C)C)C(=O)NC(Cc1ccccc1)C(=O)CCl (stereo not drawn)
x | 0.5% | 0% | 0% | O=C(Cn1ccc2ccccc2c1=O)NCC(=O)N1CCN(c2ccccc2F)CC1
-7 | 4.9% | 9% | -14% | CCn1c(=O)n(CCOC)c(=O)c2c3c(sc21)CCCC3
1 | 3.8% | 1% | -1% | Cc1cccc(CC2CC(=O)N(c3ncccn3)C2=O)c1 (stereo not drawn)
x | -1.2% | -5% | -2% | COc1ccccc1C(=O)NCC(=O)OCCCOC(=O)CNC(=O)c1ccccc1OC
x | 0.7% | 4% | 12%&5% | CC(=O)N1CCCc2cc(S(=O)(=O)N3CCCC(C(=O)NCc4ccccc4Cl)C3)ccc21 (stereo not drawn)
-1 | -3.3% | 1% | 3% | COc1cccc(/C=C/C(=C2/C(=O)N(c3ccccc3)N=C2C)c2ccccc2)c1OC
-4 | 1.9% | -11% | -4% | O=C(N1CCOCC1)N1CCN(S(=O)(=O)N2CCOCC2)CC1
5 | -0.4% | -10% | 0% | C#CCOC(=O)C[N+](C)(C)C/C=C/c1ccccc1
2 | -0.8% | -20% | 0% | CSc1nc(C)nc2c1c(=O)n(C)c(=O)n2C
x | 0.0% | 16% | x | CCCCN(C(=O)c1ccncc1)c1c(N)n(CCC)c(=O)[nH]c1=O
-14 | -0.1% | 24% | -2% | Cc1[nH]n(-c2ncc(-c3ccc(Cl)cc3)s2)c(=O)c1C(c1ccc(Cl)cc1)C(C#N)C#N (stereo not drawn)
3 | -3.7% | -8% | -11% | COC(=O)C1=C(C)N(CCc2c[nH]c3ccccc23)C(=O)C1
x | 0.0% | 22% | x | Cn1nc(C(=O)NNC(=O)c2ccccc2Br)c2ccccc2c1=O
x | 4.6% | -4% | 9% | C=CCOc1cccc(C(=O)N2CCC(CCC(=O)NC3CC3)CC2)c1
-22 | 0.7% | 8% | -8% | COCC(=O)N1CCCc2ccccc21
-11 | u | 1% | -1% | COc1cccc(/C(O)=C2/C(=O)C(=O)N(CCN3CCOCC3)C2c2cccnc2)c1 (stereo not drawn)

Single records (already shown). Screens in order: GLA inh pH 4.5	Rango complex inh	Rango dissoc inh	miR-21 reporter
CCn1c(=O)n(CCOC)c(=O)c2c3c(sc21)CCCC3 is listed with -7	4.9%	9%	-14%
Cc1ccc([N+](=O)[O-])cc1NC(=O)C(Sc1ccccc1)c1ccccc1 (stereo not drawn) is listed with -9	-1.7%	-8%	-1%

Additional structures follow:
GLA inh pH 4.5 | Rango complex inh | Rango dissoc inh | miR-21 reporter | Molecule
-5 | u | 0% | -14% | CCOc1ccc(C2CC(c3ccc(OC)cc3)n3ncnc3N2)cc1 (stereo not drawn)
-9 | -0.5% | 6% | -12% | O=C1CSC(c2cn(-c3ccccc3)nc2-c2cc3ccccc3o2)N1Cc1ccccc1 (stereo not drawn)
5 | 0.1% | -5% | -39% | CCCC(=O)Nc1ccc(NC(=O)c2ccco2)cn1
x | -2.5% | 12% | 0% | N#Cc1c(-c2ccccc2)nc(SCc2cccc(Cl)c2)[nH]c1=O
0 | 1.7% | -9% | -1% | Cn1c(C(=O)N2CCN(c3nc4ccccc4s3)CC2)cc2sccc21
x | 1.6% | -3% | -1% | CC(C)(C)c1cc(C(=S)N2CCCC2)cc(C(C)(C)C)c1O
-7 | u | u | -8% | CC(C)n1c2ccccc2c2nc3ccccc3nc21
x | -1.3% | 0% | x | O=C(c1ccccc1)C(CCc1ccccn1)CCc1ccccn1
x | -2.8% | -4% | -3% | Cc1ccc2c(c1)N(C(=O)CCC(=O)NC1CCCCCC1)CCO2
x | u | -13% | x | CC1(C)CC(=O)C=C(c2cccc(Cl)c2O)C1
x | -1.6% | -24% | 1% | CC(=O)NC12CC3CC(C1)CC(C(=O)Nc1nc4ccc(F)cc4s1)(C3)C2
x | -6.8% | -4% | -9% | CCOc1ccc(CCNC(=O)CCNC(=O)c2ccccc2Cl)cc1OCC
3 | 1.8% | -4% | 1% | CCN1C(=O)C(NC(C)=O)c2cc(OC)ccc21 (stereo not drawn)
-7 | -1.5% | -2% | 1% | CCOc1cc(CN2CCC(CO)(Cc3cccc(C(F)(F)F)c3)CC2)ccc1OC
-4 | u | u | -3% | O=C1N/C(=N/NC(=O)c2cccc3ccccc23)S/C1=C\c1ccccc1OCc1ccccc1
-5 | 0.2% | 2% | -8% | O=C1c2cccc3cccc(c23)C(=O)N1CCN1CCN(CC(O)COc2ccccc2)CC1 (stereo not drawn)

2 consecutive entries from above, for reference:
GLA inh pH 4.5 | Rango complex inh | Rango dissoc inh | miR-21 reporter | Molecule
-5 | u | 0% | -14% | CCOc1ccc(C2CC(c3ccc(OC)cc3)n3ncnc3N2)cc1 (stereo not drawn)
-9 | -0.5% | 6% | -12% | O=C1CSC(c2cn(-c3ccccc3)nc2-c2cc3ccccc3o2)N1Cc1ccccc1 (stereo not drawn)

Only part of the results is shown; rates above refer to the full screens.
